KCNQ2 block: KCNQ2 channel blockers in CHO-K1 cells – cell-based, FluxOR thallium flux, B-score, primary screen (AID 2156) | 20 min; hits give low values; only compounds with negative scores are shown here; some inactives read as strong as hits | B-score at 10 µM | actives 1.1% (n = 310,000) | O88943;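 active means fluorescence ratio B-score at most minus 3 library SDs, with starting brightness B-score within 2 library SDs, cut at about -5.5 in these data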
Target sequence (O88943 whole entry, looked up): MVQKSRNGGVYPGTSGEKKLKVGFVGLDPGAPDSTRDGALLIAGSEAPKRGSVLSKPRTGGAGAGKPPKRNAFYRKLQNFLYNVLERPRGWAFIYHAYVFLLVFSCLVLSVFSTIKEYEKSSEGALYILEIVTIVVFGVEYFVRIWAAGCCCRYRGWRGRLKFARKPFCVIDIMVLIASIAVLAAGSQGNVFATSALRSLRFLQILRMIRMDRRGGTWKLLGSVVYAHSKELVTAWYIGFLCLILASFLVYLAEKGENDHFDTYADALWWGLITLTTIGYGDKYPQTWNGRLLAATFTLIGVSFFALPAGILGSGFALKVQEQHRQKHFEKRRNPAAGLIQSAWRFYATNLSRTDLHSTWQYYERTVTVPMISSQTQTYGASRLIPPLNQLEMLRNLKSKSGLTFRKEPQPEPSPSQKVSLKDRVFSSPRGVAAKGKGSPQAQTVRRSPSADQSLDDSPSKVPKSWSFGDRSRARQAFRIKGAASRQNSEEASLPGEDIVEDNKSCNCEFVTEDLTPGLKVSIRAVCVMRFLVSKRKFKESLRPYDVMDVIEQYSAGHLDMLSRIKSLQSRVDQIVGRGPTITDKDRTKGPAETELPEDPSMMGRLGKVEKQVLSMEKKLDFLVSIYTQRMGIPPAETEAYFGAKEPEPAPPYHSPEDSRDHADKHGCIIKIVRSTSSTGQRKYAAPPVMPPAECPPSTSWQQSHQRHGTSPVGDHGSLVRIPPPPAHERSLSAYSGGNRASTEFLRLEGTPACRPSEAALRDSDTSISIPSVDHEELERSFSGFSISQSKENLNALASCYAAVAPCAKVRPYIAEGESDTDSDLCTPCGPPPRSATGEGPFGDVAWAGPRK
KCNQ2 block baseline: further read-out of KCNQ2 block, marked with its call; B-score; measured here: initial fluorescence intensity artifact check;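 brightness before thallium and not channel activity; 0 = typical well and far values either way flag optical interference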
* marks the source's active call; other numbers are inactive results; i = inactive. An excerpt; count on the stated rates, not on these rows.

SMILES	KCNQ2 block	KCNQ2 block baseline
COC(=O)C1(Cc2cc(-c3ccc(Cl)cc3)no2)CCN(C(=O)OC(C)(C)C)CC1	i	1.6
Cn1c(CNS(=O)(=O)c2ccc(Cl)cc2)n[nH]c1=S	i	0.13
N/C(=N\NC(=O)c1ccc(F)cc1)c1cc2ccccc2oc1=O	i	1.1
COc1cc(NC(=O)CSCC(=O)Nc2cccc(C(F)(F)F)c2)c(Cl)cc1Cl	i	-0.3
O=C(COc1ccccc1)N/N=C/c1sc(=O)n(Cc2cccc(C(=O)O)c2)c1Cl	i	-0.95
Cn1cccc1Cc1nnc(SCC(=O)Nc2nccs2)n1CCc1ccccc1	i	-0.53
O=C(NCCN1CCCCC1)Nc1ccc(F)c(Cl)c1	i	1.8
CCN1CC2([N+](=O)[O-])C=CC(=O)C([N+](=O)[O-])(C1)C2CC(=O)c1ccccc1 (stereo not given)	i	1.2
Cc1ccc(NC(=O)NC2CC(=O)N(c3ccc4c(c3)OCCO4)C2)cc1C (stereo not given)	i	0.01
CN1CCS/C1=C\C=C1/SC(=S)N(CC(=O)O)C1=O	i	32
C/C=C(\C)C(=O)NCCN1C2=NC[C@H](Cc3ccc(O)cc3)N2C[C@H]1Cc1ccc(O)cc1	i	0.36
CCCCS(=O)(=O)N1CCCC(C(=O)Oc2ccc(Cl)cc2)C1 (stereo not given)	i	1.3
CC(C)CCNc1nc(N)c([N+](=O)[O-])c(N2CCCCCC2)n1	i	1.6
CN(C(=O)CCN1C(=O)/C(=C/c2ccccc2F)SC1=S)C1CCS(=O)(=O)C1 (stereo not given)	i	-0.81
Cc1cccc(/C=C2/SC(=O)N(Cc3ccccc3Cl)C2=O)n1	i	-1.8
CCOc1ccc(-c2cc(C(=O)OC)[nH]n2)cc1	i	-1
O=C1C2Sc3[nH]c(=O)sc3C(c3ccccc3)C2C(=O)N1c1ccccc1 (stereo not given)	i	-0.13
CCC(C)Sc1nc2c(c(=O)[nH]1)C(c1cccs1)C1=C(CCCC1=O)N2 (stereo not given)	i	-1.1
Nc1ncnc2nc(SCc3ccccc3)[nH]c12	i	0.06
CCc1nnc(NC(=O)CSc2ccc(-c3ccc(F)cc3)nn2)s1	i	-0.59
OCCOCCOc1cccc2[nH]ccc12	i	1
O=C(CNS(=O)(=O)c1cccs1)N1CCCCC1	i	0.07
CC(Sc1cccc[n+]1[O-])C(=O)Nc1ccc([N+](=O)[O-])cc1Cl (stereo not given)	i	0.28
CNC(=O)C12CC3CC(CC(Cl)(C3)C1)C2	i	3.3

A few values from above:
CCc1nnc(NC(=O)CSc2ccc(-c3ccc(F)cc3)nn2)s1 in KCNQ2 block baseline shows -0.59
Nc1ncnc2nc(SCc3ccccc3)[nH]c12 in KCNQ2 block baseline shows 0.06

Continued.
SMILES	KCNQ2 block	KCNQ2 block baseline
O=C(Nc1ccc2c(c1)OCO2)c1ccc(=O)[nH]n1	i	-0.01
CCOC(=O)C1=C(c2ccccc2)NC(SC)=C(C#N)C1c1ccco1 (stereo not given)	i	0.83
O=C(Cn1nc(-c2ccc(Cl)cc2)ccc1=O)NCCCN1CCN(Cc2ccccc2)CC1	i	-0.07
Cc1ccccc1-c1c(C)oc2cc(O)ccc2c1=O	i	-0.88
NCCc1nnc(SCc2c(Cl)cccc2Cl)o1	i	0.01
CCOc1ccc(CCNC(=O)CCc2nnc3ccc(N4CCCC4)nn23)cc1OCC	i	0.39
Cc1ccc(N(CC(=O)NCC2CCCO2)C(=O)CNS(=O)(=O)c2ccc(Cl)cc2)cc1 (stereo not given)	i	-0.55
CC(Cc1nnc(N)s1)c1ccccc1 (stereo not given)	i	-0.61
COc1ccc(Cc2nc3ccc(C(=O)N(C)Cc4cc(C)[nH]n4)cc3o2)cc1OC	i	-0.7
Cc1ccc(OCC(=O)N2CCCC(CCC(=O)N(C)CCc3ccccn3)C2)cc1 (stereo not given)	i	0.45
COc1ccc(C(=O)Nc2ccc3[nH]ccc3c2)cc1OC	i	-1.3
Cc1nn(CC(=O)NCc2ccccc2)c(C)c1[N+](=O)[O-]	i	0.12
Cc1ccc(C(C)C)c(OCC(=O)Nc2ccccc2N2CCN(C)CC2)c1	i	-0.04
COc1ccc(NS(=O)(=O)c2ccc(C)c(C(=O)NNC(=O)c3csc(N4CCOCC4)n3)c2)cc1	i	-0.02
CCCN(CCC)Cc1c(C(=O)N/N=C/CCc2ccccc2)nnn1-c1nonc1N	i	-0.38
COc1ccccc1N(Cc1ccccc1)S(=O)(=O)c1cccc(C(=O)Nc2cccc(C)n2)c1	-6.4*	-2.4*
O=C(Nc1ccccc1)c1ccc(Br)c(S(=O)(=O)Nc2cccnc2)c1	i	1.5
CCOC(=O)COc1ccc2c(C#N)c3ccccn3c2c1	i	-1.3
CC1(C)Cc2cccc(OCC(=O)Nc3nccs3)c2O1	i	0.43
CCOc1ccc(-n2ccc(=O)c(C(=O)O)n2)cc1	i	-0.19
CC(C)c1nc(N2CCN(C(=O)c3ccccc3)CC2)c(C#N)c2c1COC(C)(C)C2	i	-0.47
NS(=O)(=O)c1ccc(NC(=S)Nc2ccn(Cc3cccc4ccccc34)n2)cc1	i	-0.49
CCOc1ccc(NC(=O)Nc2cc(OCC(F)(F)F)cc(OCC(F)(F)F)c2)cc1	i	-0.01
Cc1cccc(CC(C)NC(=O)c2oc3c(F)cccc3c2C)n1 (stereo not given)	i	0.23
COc1cccc(-c2ccc(NC(=O)C3CCCN(Cc4cc(C)[nH]n4)C3)cc2)c1 (stereo not given)	i	0.57
COC(=O)c1ccc(C2C(C(=O)c3cc4ccccc4o3)=C(O)C(=O)N2CCN2CCOCC2)cc1 (stereo not given)	i	-0.03
Cn1cccc1C(=O)NNC(=O)COc1ccccc1F	i	-1.6
FC(F)(F)c1cccc(Cc2noc(CN3CCCC3)n2)c1	i	0.13
O=C1/C(=C\c2ccco2)CCC/C1=C\c1ccco1	i	-0.24
CCOc1ccc(N/C=C/C(=O)c2cc(OC)c(OC)c(OC)c2)cc1	i	0.04
CCOC(=O)CC(NC(=O)c1cccc2c1C(=O)N(Cc1cccnc1)C2)c1ccc(OC(C)C)cc1 (stereo not given)	i	-2
COc1ccccc1/C=C1\SC(=S)N(Nc2nc(C)cc(C)n2)C1=O	i	-1.3
Cc1c(Cl)cccc1NC(=O)CCS(=O)(=O)c1cccc2nonc12	i	-1.8
CCOC(=O)c1c[nH]n(-c2ccccc2)c1=O	i	0.11
O=C(Nc1ccnn1C1CCN(C(=O)c2ccc(F)cc2)CC1)C1CCOC1 (stereo not given)	i	0.65
CC1(C)NC(=O)N(CCOCCOc2c(Cl)cc(Cl)cc2Cl)C1=O	i	3.3

Pulled one by one from above (five):
SMILES	KCNQ2 block	KCNQ2 block baseline
CCOC(=O)c1c[nH]n(-c2ccccc2)c1=O	i	0.11
Cc1c(Cl)cccc1NC(=O)CCS(=O)(=O)c1cccc2nonc12	i	-1.8
O=C(Nc1ccnn1C1CCN(C(=O)c2ccc(F)cc2)CC1)C1CCOC1 (stereo not given)	i	0.65
CCOc1ccc(N/C=C/C(=O)c2cc(OC)c(OC)c(OC)c2)cc1	i	0.04
COc1cccc(-c2ccc(NC(=O)C3CCCN(Cc4cc(C)[nH]n4)C3)cc2)c1 (stereo not given)	i	0.57

Entries listed so far that have a CF3 group:
SMILES	KCNQ2 block	KCNQ2 block baseline
COc1cc(NC(=O)CSCC(=O)Nc2cccc(C(F)(F)F)c2)c(Cl)cc1Cl	i	-0.3
CCOc1ccc(NC(=O)Nc2cc(OCC(F)(F)F)cc(OCC(F)(F)F)c2)cc1	i	-0.01
FC(F)(F)c1cccc(Cc2noc(CN3CCCC3)n2)c1	i	0.13

Next part
SMILES	KCNQ2 block	KCNQ2 block baseline
CCOC(=O)C1CCN(C(c2cc(OC)c(OC)c(OC)c2)c2sc3nc(C)nn3c2O)CC1 (stereo not given)	i	1.4
Cn1cc(CN2CCC(CO)(CCCc3ccccc3)CC2)c(-c2ccccc2)n1	i	0.43
O=C(NCc1ccc(Cl)cc1)C(=O)NCC1OCCN1S(=O)(=O)c1cc(F)ccc1F (stereo not given)	i	-0.03
CC(=O)OCCn1c(=O)c2cc3c(=O)n(CCOC(C)=O)c(=O)c3cc2c1=O	i	-3.3
CCC(C)CCN1C(Nc2ccccc2)=NC[C@@H]1Cc1ccccc1 (stereo not given in full)	i	1
CCOC(=O)c1c(-c2ccc(F)cc2)csc1NC(=O)C1CC=CCC1C(=O)O (stereo not given)	i	2.1
CCOc1ccccc1-c1noc(CCCC(=O)NC2CCCCC2)n1	i	-2.1
S=C(c1ccc(Cl)cc1)N1CCN(Cc2ccccc2)CC1	i	0.11
CC(C)C[C@H](NC(=O)OC(C)(C)C)c1nnc(SCC(=O)Nc2ccc(Br)cc2)o1	i	1.5
Cc1ccccc1C(CC(=O)c1cccs1)C(C#N)C#N (stereo not given)	i	0.18
CC(C)Cn1c(N)c(C(=O)COC(=O)c2cc(-c3ccccc3)nc3ccccc23)c(=O)n(C)c1=O	i	-0.98
CC(C)[C@H](NC(=O)C1CCC(CNC(=O)[C@@H]2CCCN2C(=O)OC(C)(C)C)CC1)C(=O)O (stereo not given in full)	i	-0.19

Ordered by number of heavy atoms (rising): part of the list above
SMILES	KCNQ2 block	KCNQ2 block baseline
Cc1ccccc1C(CC(=O)c1cccs1)C(C#N)C#N (stereo not given)	i	0.18
S=C(c1ccc(Cl)cc1)N1CCN(Cc2ccccc2)CC1	i	0.11
CCOC(=O)c1c(-c2ccc(F)cc2)csc1NC(=O)C1CC=CCC1C(=O)O (stereo not given)	i	2.1
CC(C)[C@H](NC(=O)C1CCC(CNC(=O)[C@@H]2CCCN2C(=O)OC(C)(C)C)CC1)C(=O)O (stereo not given in full)	i	-0.19

Remaining list, next part
SMILES	KCNQ2 block	KCNQ2 block baseline
CCC(C)NCCOCCOc1ccccc1-c1ccccc1 (stereo not given)	i	-0.57
CCC(Cc1ccccc1)NC(=O)C1CCN(S(=O)(=O)c2ccc3c(c2)CC(C)N3C(C)=O)CC1 (stereo not given)	i	-0.75
CC1(C)CC2CC(C)(CN2C(=S)Nc2ccccc2F)C1 (stereo not given)	i	-0.56
C[C@@]12CCC=C[C@H]1[C@H](c1ccc3ccccc3c1Br)N(Cc1ccccc1)C2=O	i	-1
C=CCN1C(=O)/C(=C\c2ccc(Oc3nc(N4CCOCC4)nc(N4CCOCC4)n3)c(OC)c2)SC1=S	i	1.2
COc1cc2c(cc1OC)C(c1cc3cccc(C)c3[nH]c1=O)N(C(=O)c1ccco1)CC2 (stereo not given)	i	0.47
COc1ccc(-c2csc(-c3cccnc3)n2)cc1C	i	2
Cc1ccc(OCCSc2nc3ccccc3n2CC(=O)O)c(C(C)C)c1	i	-0.88
Cc1ccc(SCc2cc(=O)[nH]c(SCC(=O)Nc3cc(Cl)ccc3Cl)n2)cc1	i	1.1
O=C(OCC(=O)N1CCc2ccccc21)c1c2c(nc3ccccc13)CCCC2	i	-2
CCOc1cccc(C(=O)Nc2nnc(-c3cccs3)s2)c1	i	0.04
O=C(Nc1ccc(Nc2ccccc2)cc1)c1ccc(Br)o1	i	-0.01
COc1ccc(C2Nc3ccccc3C(=O)N2Cc2ccco2)cc1COc1ccc([N+](=O)[O-])cc1 (stereo not given)	-6.8*	-0.21*
O=C(c1cc(-c2ccccc2)nc2ccccc12)N1CCc2ccccc2C1	-7.8*	1.3*
Cc1cc(C)c(NC(=S)NCCO)c(C)c1	i	-1.5
O=C(CN(C1CCCCC1)S(=O)(=O)c1ccc(Cl)cc1)N1CCOCC1	i	-0.39
Cc1cccc2cc(CN(Cc3ccco3)C(=O)NC3CCCCC3)c(=O)[nH]c12	i	-1.6
COc1ccc(CN2CCNC(=O)C2CC(=O)NCc2cc(C)n(C)n2)c(F)c1 (stereo not given)	i	-0.64
C#CC1(NC(=O)NC(C)C)CCCCC1	i	0.04
Cc1ccc(C(NC(=O)C2CCCCC2)c2c(O)ccc3ccccc23)cc1 (stereo not given)	i	0.01
Cc1cc(O)cc(O)c1-c1onc(C(F)(F)F)c1-c1cscn1	i	-0.49
COC(CNC(=O)[C@H](Cc1ccccc1)N1Cc2ccccc2C1=O)OC	i	-0.14
NC(=O)C1CCN(C(=O)C2c3ccccc3C(=O)N3CCc4ccccc4C23)CC1 (stereo not given)	i	1.4
O=C(Nc1cc2c3c(c1)C1CCCC1CN3CC1CCCC21)c1ccc([N+](=O)[O-])cc1 (stereo not given)	i	0.52
O=C(NC(=S)Nc1ccc(N2CCN(C(=O)c3ccccc3)CC2)cc1)c1cccs1	i	1.7
CCN1C(=O)C(CC(=O)Nc2ccc(Br)cc2)N(CCCc2ccccc2)C1=S (stereo not given)	i	-2
COC/C=C/C1=CC2=CC(=O)C(C)(OC(=O)c3cnc4ccccc4n3)C(=O)C2=CN1c1ccccc1 (stereo not given)	i	-0.83
COc1ccc(C2c3c(oc4ccc(Cl)cc4c3=O)C(=O)N2CCN2CCOCC2)cc1 (stereo not given)	-6.6*	0.02*
COc1cccc(CN2C(=O)c3ccccc3S2(=O)=O)c1	i	-1.3
COC1=C/C(=C/c2c(N)n3cc(C)sc3nc2=O)C=CC1=O	i	2.6
O=C(OCc1ccccc1F)c1ccc2c(c1)-c1ccccc1C2=O	i	-2.4
CCC1CN(C(=O)N2CCC(C(=O)NCc3ccc(OC)cc3OC)CC2)c2ccccc2O1 (stereo not given)	i	-0.01
COc1cc(Cn2c(=O)oc3ccc(C)cc32)ccc1OC(C)C	i	-0.75
C=CCOC(=O)C1=C[C@H](C2CC2)[C@@H](CCCO)[C@H](OCC)O1	i	0.08
Cc1ccc(NC(=O)CN(c2ccccc2)S(=O)(=O)N(C)C)cc1	i	1.9
CC(Oc1ccc(Cl)cc1Cl)C(=O)Nc1ccc(O)cc1 (stereo not given)	i	-0.18
O=[N+]([O-])c1ccccc1/C=C/CN1CCCC(CO)C1 (stereo not given)	i	0.03
Cc1ccc(-c2c(C)n([O-])c3c([n+]2=O)CCC3)o1	i	2

Screens (PubChem BioAssay)
